Screening results deposited in PubChem BioAssay by National Center for Advancing Translational Sciences (NCATS).
StopGo FLuc: FMDV 2A StopGo reporter, firefly signal | Potency, µM (doses to about 57.5 µM), inactives show top-dose signal change, negative = less light | HEK cells with a luciferase reporter of 2A StopGo recoding | 120,000 compounds, 0.23% hits; active = well fitted falling curve with a large enough effect; inconclusive = small, poorly fitted or top-dose-only effect; inactive = no such curve, though single readings can be large or run the other way; further: nearly all actives have a fitted effect of over 60% in size; overnight with compound
2A Renilla: FMDV 2A StopGo reporter, Renilla signal; HEK cells with a luciferase reporter of 2A StopGo recoding; Potency, µM (series often up to 57.5 µM), for the others: at the highest dose signal change, negative = less light; 120,000 compounds, 0.32% hits; AID 1745857; active means well fitted falling curve with a large enough effect; inconclusive means small, poorly fitted or top-dose-only effect; inactive means no such curve, though single readings can be large or run the other way; further: nearly all actives have a fitted effect of over 55% in size; overnight with compound
An asterisk follows results filed as active; ? = inconclusive; & = joins results of further samples; [ ] = remark or other dose. On the % scale 0 is the no-effect control and ±100 the full control effect; potency means the concentration at half of the fitted maximal effect.

SMILES	StopGo FLuc	2A Renilla
CCCCCCn1c(SCC(=O)Nc2ccccc2)nc2c1c(=O)n(C)c(=O)n2C	-1%	14%
Cc1nc2cc(NS(=O)(=O)c3ccccc3Cl)ccc2o1	-1%	0%
CCOC(=O)c1ccc(NC(=O)COc2cc(C)c(Cl)c(C)c2)cc1	-4%	-2%
Cc1csc2nc(CCNS(=O)(=O)c3ccc(F)cc3)cn12	6%	23%
CCc1[nH]c(C(=O)OCC(=O)NC2CCCC2)c(C)c1C(=O)OC	-1%	-24%
CC(=O)c1ccc(Nc2nc3c(S(=O)(=O)c4ccccc4)nnn3c3ccc(Cl)cc23)cc1	-9%	62%
O=C1CCc2cc(S(=O)(=O)NCc3ccc(F)cc3)cc3c2N1CC3	-7%	42%[activator]
Cc1nc2c(C(=O)NCc3ccccc3Cl)cnn2c(C)c1Cc1ccccc1	-3%	4%
CCOC(=O)c1ccc2ncc(C(=O)OCC)c(NCCCOC(=O)C(C)(C)C)c2c1	-4%	0%
Cc1cnc(NC(=O)Cn2ccc3ccc(Br)cc32)s1	8%	0%
CC(C)(C)OC(=O)N1CCC(c2c(C(=O)N3CCN(c4ccc(Cl)cc4)CC3)cnn2-c2ccc(F)cc2F)CC1	-17%	-7%
Cc1oc2cc(O)ccc2c(=O)c1Oc1ccccc1	-2%	-2%
O=C(O)CCCC(=O)N1CCN(c2ccc(Cl)c(Cl)c2)CC1	0%	-21%
Cc1c(OCc2nnc(SC(C)C(=O)Nc3ccc4c(c3)OCO4)n2C)ccc2ccccc12 (stereo not given)	?	0%
COc1ccc(N(Cc2cc(CN3CCOCC3)cs2)S(=O)(=O)c2cc(C)cc(C)c2)cc1	25µM*	-1%
CCc1ccc(CNCc2ccco2)cc1	69%[activator]	23%
CCOc1ccc(Nc2nc3ccccc3nc2NS(=O)(=O)c2ccc(F)cc2)cc1	45%[activator]	7%
COc1ccc2c(c1)-c1nc(NC(=O)c3ccccc3F)sc1CC2	0%	-19%
O=S1(=O)c2ccc(Br)cc2OC[C@@H](Cc2ccccc2)N1Cc1cn(CC2CCCCC2)nn1	10%	19%
Cc1ccccc1-n1nnc(C(=O)NC2CCCCC2)c1N	25%	19%
CCOCCn1c(-n2nc(C)cc2C)nc2c1c(=O)n(CCc1ccccc1)c(=O)n2C	-24%	?
Fc1ccc(-n2c(Cc3ccccc3)nnc2SCc2ccc(Br)cc2)cc1	-24%	37%[activator]
Cn1c(=O)[nH]c(=O)c2c1nc(N1CCCCC1)n2CC(O)c1ccccc1 (stereo not given)	13%	4%
Cc1cc(=O)n(CC(=O)N2CCN(c3ccccc3F)CC2)c2c1c(C)nn2C	?	-6%
Cc1cccc(NC(=O)c2ccc3c(c2)NC(=O)CS3)c1	134%[activator]	-3%
Cc1ccc(NC(=O)CN(Cc2cccs2)CC2CCCO2)cc1 (stereo not given)	0%	40%[activator]
O=C(CSc1nc(-c2ccccc2)c2ccccc2n1)Nc1ccc(F)cc1	-19%	-15%
Cc1ccc(S(=O)(=O)NCCSc2nnnn2-c2ccccc2)cc1	-2%	147%[activator]
Cc1cc(NC(=O)c2cc(-c3ccc(Cl)cc3)on2)n(-c2ccccc2)n1	7%	-9%
Cc1cc(Cl)ccc1OCC(=O)OCC(=O)Nc1ccccc1Br	-3%	-12%

Other structures:
SMILES	StopGo FLuc	2A Renilla
COc1ccc2nc(-c3ccc4c(c3)OCO4)cc(C(=O)NCCN3CCOCC3)c2c1	48%[activator]	21%
COc1ccc(NC(=O)COCC(=O)N(c2ccccc2)c2ccccc2)cc1	-3%	-8%
CCOc1cc(/C=C/C(=O)O)ccc1OCc1ccc2ccccc2c1	0%	12%
Cc1ccc2c(CSc3nnnn3C3CC3)cc(=O)oc2c1C	0%	34%[activator]
Cc1nn(CC(=O)NCC(C)N2CCCC2)c(=O)c2ccccc12 (stereo not given)	-7%	-13%
CC(C)(C)S(=O)CCC(=O)O (stereo not given)	-10%	-4%
Cc1cc2cc(C(=O)O)ccc2o1	23%	9%
COc1ccccc1CNC(=O)CN1C(=O)CSc2c1c(C)nn2-c1ccccc1	-18%	7%
CCc1cccc(C)c1NC(=O)CCn1nc(C)c2c(C)n(-c3ccccc3)nc2c1=O	-2%	3%
COc1ccc(C2(c3ccc(OC)cc3)C=Cc3c(c(OC)cc4ccccc34)O2)cc1	14%	-25%
FC(F)(F)c1cccc(-n2nnnc2C2(NC3CCCCC3)CCCC2)c1	2%	0%
O=c1c2ccccc2c(-c2ccccc2)nn1-c1cc(N2CCNCC2)ccc1[N+](=O)[O-]	0%	-6%
Cc1nn(C)c(C)c1CCNC(=O)Nc1ccccc1C(F)(F)F	19%	8%
CCOc1ccccc1CNC(=O)CCc1cn(C)c2ccccc12	6%	9%
O=C(Nc1ccc(Br)cc1)c1nc2ccccc2nc1N1CCCC1	21%	27%
COCCOC(=O)C1=C(C)NC(=O)NC1c1cn(-c2ccccc2)nc1-c1ccccc1 (stereo not given)	-5%	-1%
CCc1ccc(C(=O)c2cn(CC(=O)NC3CCCCC3)c3nc(C)ccc3c2=O)cc1	-12%	-13%
C[C@H](O)[C@@H]1CN2CCc3c([nH]c4cccc(-c5ccccc5)c34)[C@@H]2C[C@@H]1N(C)C(=O)C1CCCCC1	-3%	6%
CCCCNC(=O)CSc1nc2ccccc2nc1Cc1ccccc1	6%	21%
Cc1cccc(Cn2c(=O)n(Cc3ccccc3)c(=O)c3oc4ccccc4c32)c1	-11%	-9%
CCN(CC)C(=O)Cn1c(=O)nc(-c2ccccc2F)c2cc(Cl)ccc21	-9%	-9%
Cc1ccc(CSc2ncc(Cl)c(C(=O)NCCc3ccc(S(N)(=O)=O)cc3)n2)cc1	?	?
COc1cccc(NC(=O)CSc2ncc(-c3ccc(F)cc3)o2)c1	0%	-6%
Cc1csc2nc(-c3cccc(NS(C)(=O)=O)c3)cn12	146%[activator]	2%
COc1ccc(C2C(C#N)=C(SC)NC3=C2C(=O)CC(C)(C)C3)cc1 (stereo not given)	-17%	-1%
CCOc1ccc(CCNC(=O)CCc2cn(Cc3ccc(C)cc3)c3ccccc23)cc1	-20%	3%
CN1CCN(S(=O)(=O)c2ccc(N(C)CCOc3ccc(Cl)cc3)nc2)CC1	-16%	-13%
COc1ccc(-n2c3c(cc(C#N)c2=O)C(=O)CC(C)(C)C3)cc1Cl	0%	-4%
Cc1ccc(Cl)cc1NC(=O)C1CC(=O)N(C2CCCCC2)C1 (stereo not given)	-5%	-4%
CCCn1c(=O)n(CC(=O)Nc2ccc(F)cc2F)c(=O)c2c1nc(C)n2CCOC	-6%	-5%

The listing continues:
SMILES	StopGo FLuc	2A Renilla
CC(NC(=O)C1CCCc2ccccc21)c1cccc(Cl)c1 (stereo not given)	16%	13%
CCOc1ccc(N/C=C/C(=O)c2ccc(C)cc2)cc1	111%[activator]	-3%[1.06 µM]
COc1cc(CN(C(=O)c2ccccc2)c2ccccn2)cc(OC)c1OC	-5%	9%
CC1=C(C(=O)N2CCN(c3cccc(C(F)(F)F)c3)CC2)C2(CCCCC2)OC1=O	2%	22%
Cc1ccc(-c2cc3ncc(C(=O)c4cc([N+](=O)[O-])ccc4O)cn3n2)cc1	6%	-4%
COCCCn1c(C(C)Oc2ccc(C(C)(C)C)cc2)n[nH]c1=S (stereo not given)	?	?
CCOC(=O)CNS(=O)(=O)c1cc(-c2nnc(Nc3cccc(O)c3)c3ccccc23)ccc1C	0%	77%[activator]
O=C(NC(C1CC1)C1CC1)c1ccc(Cl)cc1	6%	7%
CC[N+](CC)(CC#Cc1ccccc1)CC(=O)C(C)(C)C	-5%	-2%
O=C1CCC(N2C(=O)c3ccccc3C2=O)C(=O)N1 (stereo not given)	7%[11.5 µM]	-11%
O=C(Nc1ccc(N2CCOCC2)c(Cl)c1)c1cccc2ccccc12	0%	51%[activator]
CN(CC(=O)Nc1ccc(Cl)cc1)Cc1ncc(-c2ccc(F)cc2)o1	13%	-6%
OCC1CCN(CCCOCCc2ccccc2)CC1	-5%	3%
COc1cc(/C=C(\C#N)C(=O)c2ccccc2)ccc1OCc1ccccc1	199%[activator]	2%
CCC(=O)N1CCc2cc(CNC(=O)Nc3cc(OC)c(OC)c(OC)c3)ccc21	13%	0%
Fc1ccc(N/N=C/c2ccc(Cl)cc2Cl)c(F)c1	173%[activator]	35%[activator]
O=C(CN1C(=O)COc2ccc(S(=O)(=O)N3CCCCC3)cc21)NCCc1ccc(Cl)cc1	-15%	-3%
CCOC(=O)NC(C(=O)NCCc1ccccc1)C(C)C (stereo not given)	0%	9%[1.06 µM]
CSCC(=O)NCc1sccc1C	0%	10%
Cc1cccc(-c2nc(Cn3nc(C)c4c(C)onc4c3=O)c(C)o2)c1	-22%	-26%
Cc1ccccc1CCNCc1c(C(=O)O)c(C)n(Cc2c(F)cccc2Cl)c1C	-18%	19%
O=C(CC1Sc2ccc(C(F)(F)F)cc2NC1=O)NOC1CCCCO1 (stereo not given)	22%	6%
COc1ccc(COCC(O)CNC(=O)CC(C)C)cc1 (stereo not given)	9%	8%
COc1cc(NC(=O)c2ncoc2-c2cccs2)cc(OC)c1	8%	-4%
CC(C)NC(=O)c1cc2cc(Br)ccc2oc1=O	35%[activator]	20%
CCCCCCCNC(=O)CCC(=O)NCCCOCCCC	-6%	-10%
Cc1cccc(Cn2cnc3c(oc4ccccc43)c2=O)c1	29%	-3%
OCC1(CO)CCCC12COC(c1ccccc1)OC2 (stereo not given)	15%	22%
COc1ccc(CNC(=O)c2nn(C)c3c2CSc2ccccc2-3)cc1	-3%	26%
CCc1ccc(CNC(=O)c2nn(-c3ccc(C)c(C)c3)nc2CO)cc1	12%	0%

Ordered by formula weight (highest first): three of the compounds above
SMILES	StopGo FLuc	2A Renilla
CCC(=O)N1CCc2cc(CNC(=O)Nc3cc(OC)c(OC)c(OC)c3)ccc21	13%	0%
COc1cc(NC(=O)c2ncoc2-c2cccs2)cc(OC)c1	8%	-4%
O=C(NC(C1CC1)C1CC1)c1ccc(Cl)cc1	6%	7%

Further results
SMILES	StopGo FLuc	2A Renilla
CCc1ccc(/C=C/C(=O)NCc2ccco2)o1	0%	15%
COc1cccc(-c2[nH]nc3c2C(c2ccc(O)cc2)C(C#N)=C(N)O3)c1 (stereo not given)	7%	-11%
COc1ccccc1C(C)NC(=O)CSC(C)c1ccccc1 (stereo not given)	18%	17%
Cn1nc(C(=O)N2CCN(c3ccccc3F)CC2)c2c1-c1ccccc1S(=O)(=O)C2	-22%	2%
Cc1cc(C)cc(NC(=O)C(=O)NCCc2sc(-c3cccc(F)c3)nc2C)c1	-14%	-9%
Cc1ccc(-c2nc(-c3cc4cccc(OCc5cccc(C)c5)c4oc3=O)no2)cc1	-21%	-19%
Cn1c(=O)c2c(ncn2CCCC(=O)Nc2ccc(I)cc2)n(C)c1=O	2%	4%
Cc1ccc(CCNC(=O)CN(c2ccc(C)cc2)S(=O)(=O)c2c(C)noc2C)cc1	-11%	-7%
Cc1ccc(NC(=O)COc2ccc3oc4c(c3c2)CCCC4)c(C)c1	-10%	-11%
Cc1ccc(-c2nc3ccccc3o2)cc1NC(=O)c1cccc2c(Cl)cccc12	-15%	-9%
Cc1csc2nc(COC(=O)c3ccccc3NC(=O)COc3ccccc3F)cc(=O)n12	-18%	0%
Cc1ccc(C)c(N2CCN(S(=O)(=O)c3c(C)nc4scc(C)n4c3=O)CC2)c1	-10%	31%[activator]
CCn1nc(C(=O)OC(C(=O)NC(N)=O)C(C)C)c2ccccc2c1=O (stereo not given)	2%	-6%
CCCCNC(=O)CSc1nc2ccccc2nc1Cc1ccc(Cl)cc1	4%	-11%
CC(CO)(CO)NC(=O)c1ccc(C#Cc2cccc(F)c2)cn1	233%[activator]	-9%
NC(=O)c1ccsc1NC(=O)COc1ccc2c(c1)CCC2	49%[activator]	-30%
CCS(=O)(=O)CCn1c([N+](=O)[O-])cnc1C	12%	32%[activator]
CC1CCCCN1S(=O)(=O)c1ccc2c(c1)oc(=O)n2CC(=O)Nc1ccc(Cl)cc1 (stereo not given)	-6%	11%
O=C(Cn1ccc2ccc(Cl)cc21)Nc1ccc(O)cc1	17%	96%[activator]
CCCOc1cccc(C(=O)N(Cc2sccc2C)C2CCS(=O)(=O)C2)c1 (stereo not given)	0%	20%
O=C(NCCc1c[nH]c2ccc(Cl)cc12)c1cccc(F)c1F	9%	33%[activator]
O=C(CSc1nccn1-c1ccc(Cl)cc1)Nc1cccc2ccccc12	-25%&-10%	-15%&6%
COc1ccccc1OC(C)C(=O)Nc1cccc(-c2nc3ccccc3o2)c1 (stereo not given)	47%&34%[activator]	-5%&5%
Cc1c(NC(=O)c2cccs2)cccc1-c1nc2cc(Cl)ccc2o1	17%	14%
CCCCOc1ccc(CNC(=O)c2ccc(-c3nc(CN4CCc5ccccc54)c(C)o3)cc2)cc1	6%	9%
O=C(Nc1ccc(-c2noc(-c3ccc(Cl)cc3)n2)cc1)c1ccco1	19%	-10%
COc1ccccc1CNC(=O)c1c(O)nc2cc(C)ccn2c1=O	-20%	-9%

Quoted from the listing:
`Cc1ccc(NC(=O)CN(Cc2cccs2)CC2CCCO2)cc1` (stereo not given) in StopGo FLuc: 0%
`CCOC(=O)c1ccc(NC(=O)COc2cc(C)c(Cl)c(C)c2)cc1` in 2A Renilla: -2%

Outcome played no part in choosing rows. About 0.53% of those tested had a hit in this group.
